ALR H2O2 inh: inhibitors of human ALR sulfhydryl oxidase, primary screen, biochemical, H2O2 detection, HRP-luminol luminescence, single point. inhibition, % (concentration not given with the values). purified ALR, DTT oxidation. FAD-linked sulfhydryl oxidase ALR (Homo sapiens), P55789. actives 3.8% (n = 290,000);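 active means mean and each replicate at 75% or more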;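 further: stock transfer was 7.5 nL into about 7.5 µL; 0% = neutral wells and 100% = wells with inactivated enzyme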
FGF22 binding: binders of human FGF22 protein, primary screen, FGF22 synaptogenesis inhibitor project, biophysical, thermal shift, single point. calls only at 9.99 µM. recombinant FGF22 thermal shift, SYPRO orange fluorescence; percent of sucrose octasulfate shift, DMSO zero. actives 1.5% (n = 340,000). AID 651658, 2012;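 active means melting point raised past a set limit in the mean and every replicate; three in four hits are not shown here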
B2AR ag: beta2AR agonists driving receptor internalization, primary screen, cell-based, FAP fluorogen, flow cytometry; Beta-2 adrenergic receptor (Homo sapiens), P07550; Am2.2-beta2AR cells; reference of the scale not given here; response, % (no concentration beside the values); actives 0.43% (n = 340,000); AID 504454, 2011;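 active means response above a set limit, near 3 SD of response in nonfluorescent compounds, cut at about 42% in these data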;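 further: stock transfer was 100 nL into about 11 µL; a reference agonist was the positive control; negative values mostly stem from fluorescent compounds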
HNF4A DNA FP: change in binding of human HNF4A to DNA, primary screen, biochemical, fluorescence polarization, FITC-DNA. Hepatocyte nuclear factor 4-alpha (Homo sapiens), P41235. actives 0.3% (n = 360,000). 1 h. activity change, % at 10 µM. AID 1224865, 2016; in the data active means activity change above about 30%, passing the limit was not always enough;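 further: controls were the assay level and a saturating level of protein; the project sought stronger binding though the title names inhibitors; some compounds called inactive have numbers as strong as hits; positive values seem to mean higher polarization but the record does not say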
E coli growth: E. coli growth inhibition, primary screen, OD600. AID 1053175, 2014. Escherichia coli growth, 23 h; hits give low values. OD600 absorbance (concentration not given with the values). actives 0.21% (n = 330,000);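 active means OD600 absorbance below the run mean of sample wells minus 3.6 SD, in any replicate, cut at about 0.56 in these data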;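 further: stock transfer was 300 nL into about 60 µL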
LANA-H2B inh: blockers of LANA interaction with H2A/H2B – biochemical, FP readout, HTS, primary screen; actives 0.6% (n = 320,000); inhibition, % (test concentration not listed); Protein LANA1 (Human herpesvirus 8 type P (isolate GK18)), Q9QR71; cell-free LANA-H2A/H2B peptide, fluorescence polarization; in the data active means inhibition mostly above about 10%, no sharp cut-off; inactive means mostly below about 6.7%;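 further: stock transfer was 7.5 nL into about 10 µL; 0% = median of vehicle wells and 100% = median of positive control wells; one replicate is shown; the record names a cut of 25% in any replicate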
Target sequence (Q9QR71 whole entry, looked up): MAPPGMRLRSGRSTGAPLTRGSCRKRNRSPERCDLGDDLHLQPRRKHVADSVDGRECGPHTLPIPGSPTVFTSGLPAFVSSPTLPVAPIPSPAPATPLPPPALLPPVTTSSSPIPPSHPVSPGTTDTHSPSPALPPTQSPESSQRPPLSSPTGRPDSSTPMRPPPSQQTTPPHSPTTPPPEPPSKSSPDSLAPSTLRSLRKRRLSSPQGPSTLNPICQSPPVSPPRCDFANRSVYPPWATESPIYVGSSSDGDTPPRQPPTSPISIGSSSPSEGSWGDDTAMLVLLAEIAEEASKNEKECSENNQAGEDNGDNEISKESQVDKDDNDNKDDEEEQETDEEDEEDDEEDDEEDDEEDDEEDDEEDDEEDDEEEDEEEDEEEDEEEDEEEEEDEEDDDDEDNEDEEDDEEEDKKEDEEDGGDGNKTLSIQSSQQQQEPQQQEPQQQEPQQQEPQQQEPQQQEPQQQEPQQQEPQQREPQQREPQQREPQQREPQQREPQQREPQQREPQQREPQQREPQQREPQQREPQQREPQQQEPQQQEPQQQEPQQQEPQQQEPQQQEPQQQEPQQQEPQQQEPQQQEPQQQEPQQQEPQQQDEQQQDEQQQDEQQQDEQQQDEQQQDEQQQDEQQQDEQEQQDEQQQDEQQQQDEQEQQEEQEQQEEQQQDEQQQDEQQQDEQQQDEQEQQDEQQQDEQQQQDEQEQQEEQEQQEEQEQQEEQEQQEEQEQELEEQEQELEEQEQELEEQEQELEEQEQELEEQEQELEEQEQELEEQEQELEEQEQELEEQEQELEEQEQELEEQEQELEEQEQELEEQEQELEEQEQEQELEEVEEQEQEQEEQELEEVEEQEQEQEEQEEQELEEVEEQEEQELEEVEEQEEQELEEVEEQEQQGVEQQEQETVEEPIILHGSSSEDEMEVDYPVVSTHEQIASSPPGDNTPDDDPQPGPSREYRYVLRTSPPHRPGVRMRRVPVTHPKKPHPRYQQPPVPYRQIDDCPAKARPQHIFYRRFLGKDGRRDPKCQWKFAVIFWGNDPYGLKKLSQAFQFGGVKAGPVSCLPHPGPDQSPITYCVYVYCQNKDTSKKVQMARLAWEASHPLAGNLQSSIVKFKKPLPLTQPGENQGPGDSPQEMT
UCH37 DUB inh: inhibitors of human UCH37 deubiquitinase, primary screen, biochemical, Ub-AMC cleavage, fluorescence; Ubiquitin carboxyl-terminal hydrolase isozyme L5 (Homo sapiens), Q9Y5K5; purified proteasome/UCH37; inhibition, % (test concentration not listed); actives 0.33% (n = 330,000); AID 588478, 2011;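 active means mean of two replicates above 20%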;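 further: 0% = compound-free wells with enzyme and 100% = wells lacking proteasome; stock transfer was 100 nL into about 20 µL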
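Reagent: Ub-AMC substrate; assay system: Proteasome-associated human UCH37 deubiquitinase; controls: no-proteasome and no-compound wells; read-out: % inhibition of Ub-AMC cleavage fluorescence; timing: 30 min preincubation with enzyme, 25 min cleavage at room temperature; signal: AMC fluorescence from Ub-AMC cleavage, excitation 355 nm, emission 460 nm; buffer or medium: Tris-HCl pH 7.4 plus ovalbumin, ATP-MgCl2, DTT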
The depositor's hits bear a star; i = inactive; nt = no result given; + = active, no number. Not all compounds are listed. The share of hits here may be higher or lower than overall.

Below each compound – ALR H2O2 inh	FGF22 binding	B2AR ag	HNF4A DNA FP	E coli growth	LANA-H2B inh	UCH37 DUB inh
Cc1ccnc2nc(C(=O)OCC(=O)Nc3ccc4c(c3)OCCO4)nn12
 : -1.5	i	3.0	1.1	0.724	-1.7	5.3
CC1CCCCN1C(=O)COC(=O)c1cc(-c2cccs2)nn1-c1ccccc1 (stereo unspecified)
 : -2.7	i	-2.9	1.1	0.672	nt	0.4
CCOCCCNC(=O)CN1C(=O)/C(=C\c2ccc(C)cc2)Sc2ccccc21
 : -0.8	i	-3.2	-0.3	0.722	0.3	-13.4
N#Cc1ccc(NC(=O)NN2CCCCCC2)cc1
 : nt	i	0.9	7.3	0.528*	nt	3.4
O=C1CN(C(=O)COc2ccc(F)cc2Cl)c2ccccc2N1
 : nt	i	1.8	1.1	0.665	1.7	-1.6
COc1ccc(OCCN2C(=O)c3cccc(N)c3C2=O)cc1
 : -2.6	i	1.4	-3.1	0.712	0.2	-31.6
CN(C)C(CNC(=O)CCCN1C(=O)c2cccc3cccc(c23)C1=O)c1ccccc1 (stereo unspecified)
 : 3.6	i	-8.7	-3.1	0.685	3.3	-72.7
O=S1(=O)C=C(SCCN2CCCCC2)c2ccccc21
 : -4.6	nt	-4.8	3.0	0.72	-1.8	0.0
COc1ccc(/C=C2\Oc3cc(OC(=O)N4CCOCC4)ccc3C2=O)cc1
 : -3.1	i	-2.0	0.8	0.694	2.6	-11.3
CCCCOc1ccc(C(=O)NCC(=O)NCC2CCCO2)cc1 (stereo unspecified)
 : -8.5	i	-4.2	0.0	0.709	2.9	-1.1
CC(Oc1ccccc1)C(=O)OCC(=O)Nc1sccc1C(N)=O (stereo unspecified)
 : nt	i	-0.9	6.4	0.655	1.5	0.0
CN(C(=O)c1ccc(NC(=O)Cc2ccc(NC(=O)C3CCN(C(=O)C4CCC4)CC3)cc2)cc1)C1CC1
 : -2.0	i	-5.3	2.5	0.7	3.1	5.0
C/C(=N\NS(=O)(=O)c1ccc(Br)cc1)c1ccc2c(c1)OCO2
 : 30.9	i	9.3	4.4	nt	-2.8	nt
O=C(OCc1cc(=O)oc2cc(O)ccc12)c1cc(S(=O)(=O)N2CCOCC2)ccc1F
 : 9.2	i	25.7	-1.0	0.647	2.3	-97.6
O=C(Nc1ccccc1)C1=C[C@@H](c2ccc(Br)cc2)C[C@@H](OCc2ccc(CO)cc2)O1
 : -6.5	i	-3.7	1.9	nt	7.0	1.9
CCNc1nc(NCC)nc(Oc2ccc(C(=O)OC)cc2)n1
 : -3.8	i	-0.8	-1.1	0.703	1.4	3.8
CCN1CCN(C(=O)c2ccc(COc3ccc(Cl)cc3)o2)CC1
 : -2.8	nt	6.3	1.2	0.741	7.5	-1.6
CCN1C(=O)C(=O)N(CC(=O)Nc2ccccc2OC(F)F)C1=O
 : nt	i	-0.8	-1.9	0.679	5.0	-2.9
O=C1c2ccccc2C(=O)N1CCSC(=S)N1CCOCC1
 : -1.8	nt	-12.9	-2.3	0.723	3.8	3.8
C=CCOc1ccc2ccccc2c1/C=N/O
 : -8.3	nt	2.1	2.1	nt	-0.5	nt
CC(C)(C)C(=O)CN1C(=O)NC2(CCOc3ccccc32)C1=O (stereo unspecified)
 : -10.5	i	-3.1	2.1	0.651	0.9	1.2
COc1c(O)ccc(/C=N/NC(=O)c2ccc3c(c2)OCCO3)c1[N+](=O)[O-]
 : 8.6	i	-2.0	1.3	nt	-1.8	nt
CC1=C(C(=O)NCc2ccccc2)C(c2ccc(C)o2)n2ncnc2N1 (stereo unspecified)
 : -24.8	nt	0.3	0.2	0.671	-0.6	0.5
COc1ccc(-c2cc(C(=O)NCCCN3CCCC3=O)c3ccccc3n2)cc1
 : 0.3	i	0.3	-0.7	0.679	-3.5	-216.5
CN(c1ccc(C(=O)N2CCN(Cc3ccccc3)CC2)cc1)S(=O)(=O)c1ccccc1
 : -5.1	i	3.2	2.0	0.641	2.8	1.7
COc1ccc(NC(=O)Nc2ccccc2F)c([N+](=O)[O-])c1
 : -0.2	i	-5.6	-1.7	0.672	-3.7	2.1
O=c1ccc2ccccc2n1Cc1cccc(F)c1
 : 3.1	i	-1.7	3.5	0.668	-7.2	4.5
Nc1ccc2c(c1)C(=O)c1ccc(Cl)cc1-2
 : nt	i	-2.6	-2.3	0.665	nt	6.6
Cc1ccccc1C(=O)Nc1ccnn1C1CCN(CC2CC=CCC2)CC1 (stereo unspecified)
 : -0.1	i	4.4	0.8	0.727	-24.0	1.3
CC(C)Oc1ccc(C(CC(=O)NCCCN(C)C)c2ccc(F)cc2)cc1 (stereo unspecified)
 : -3.8	i	0.6	1.5	0.696	0.4	0.6
Cc1ccnc2ccc(-c3nc4ccccc4o3)cc12
 : 4.3	nt	-2.7	3.7	0.744	-3.7	-70.8
CCOc1ccc(S(=O)(=O)N2CCCCC2)cc1NC(=O)CCc1ccc(OC)cc1
 : -4.0	i	-1.6	2.5	0.732	1.9	3.7
O=C(Nc1ccc2sc3ccccc3c(=O)c2c1)c1ccccc1Cl
 : -10.5	nt	2.4	1.3	0.724	0.5	-15.9
CSc1ccccc1NC(=O)c1ccccn1
 : 0.0	i	5.8	-3.0	0.652	-5.0	-0.4
C/C(=N/NS(=O)(=O)c1ccc(C)c(C)c1)c1c[nH]c2ccccc12
 : 73.4	i	-2.1	1.4	nt	-4.4	nt
COc1ccc(Oc2nc(-c3ccccn3)ncc2OC)cc1
 : 1.4	i	-21.2	2.3	0.696	3.7	3.2
COc1ccccc1Nc1nc2ccc(C)cc2n2cnnc12
 : -0.5	i	-4.8	12.9	0.663	-2.6	-54.8
CCCOc1ccc(C(=O)Nc2ccccc2[N+](=O)[O-])cc1
 : -24.3	nt	-6.1	-3.3	0.742	-2.5	-2.2
CCOC(=O)N1C(=O)NC(=O)C1c1ccc(OC)cc1 (stereo unspecified)
 : nt	i	-9.3	3.9	nt	nt	nt
CCC(=O)N(Cc1cc(=O)[nH]c2ccccc12)c1ccc(OC)cc1
 : 14.1	i	-13.6	0.3	0.668	-2.0	1.5

6 entries from above, bar-delimited.
SMILES | ALR H2O2 inh | FGF22 binding | B2AR ag | HNF4A DNA FP | E coli growth | LANA-H2B inh | UCH37 DUB inh
CSc1ccccc1NC(=O)c1ccccn1 | 0.0 | i | 5.8 | -3.0 | 0.652 | -5.0 | -0.4
CCOC(=O)N1C(=O)NC(=O)C1c1ccc(OC)cc1 (stereo unspecified) | nt | i | -9.3 | 3.9 | nt | nt | nt
C/C(=N/NS(=O)(=O)c1ccc(C)c(C)c1)c1c[nH]c2ccccc12 | 73.4 | i | -2.1 | 1.4 | nt | -4.4 | nt
CCC(=O)N(Cc1cc(=O)[nH]c2ccccc12)c1ccc(OC)cc1 | 14.1 | i | -13.6 | 0.3 | 0.668 | -2.0 | 1.5
Cc1ccnc2ccc(-c3nc4ccccc4o3)cc12 | 4.3 | nt | -2.7 | 3.7 | 0.744 | -3.7 | -70.8
COc1ccccc1Nc1nc2ccc(C)cc2n2cnnc12 | -0.5 | i | -4.8 | 12.9 | 0.663 | -2.6 | -54.8

Further compounds
Below each compound – ALR H2O2 inh	FGF22 binding	B2AR ag	HNF4A DNA FP	E coli growth	LANA-H2B inh	UCH37 DUB inh
N#C/C(=C(/O)CN1CCCCC1)c1nc(-c2ccc(Cl)cc2)cs1
 : 4.3	i	3.7	0.6	0.679	-0.2	3.1
CN(C)S(=O)(=O)c1cccc(NC(=O)COc2ccc3ccccc3c2)c1
 : -11.4	i	-9.4	2.0	0.67	8.0	3.0
Cn1ccc(-c2ccccc2)c(C#N)c1=O
 : -1.3	i	2.8	1.4	0.692	4.1	-21.4
COc1ccccc1C(=O)NNC(=O)c1cccc(O)c1
 : -0.7	i	1.5	-3.4	0.661	0.0	2.3
Cc1cnc(NC(=O)C2CC(=O)N(c3ccc4c(c3)OCCO4)C2)s1 (stereo unspecified)
 : -2.8	i	-10.1	3.1	nt	4.1	nt
O=C(NC(=S)N1CCN(c2ccc(F)cc2)CC1)c1cccs1
 : 94.5*	i	13.1	1.6	0.682	1.4	-1.4
CCOC(=O)C(CC(=O)O)NCc1ccco1 (stereo unspecified)
 : nt	i	-2.1	-2.1	0.703	-4.3	4.5
CCOC(=O)c1sc(NC(=O)CN(CC(C)C)CC(C)C)c(C(=O)OCC)c1C
 : -14.3	nt	10.7	5.6	0.677	-1.8	0.9
O=C(NCCCNC(=O)C(F)(F)C(F)F)C(F)(F)C(F)F
 : -2.1	nt	1.6	2.0	0.706	-5.0	-1.8
COC(=O)c1sc(NC(=O)c2cc(C)on2)nc1C
 : 12.3	i	0.1	1.1	0.668	-0.2	11.7
Cc1cccc(N2C(=O)CN(Cc3cccs3)C2=S)c1
 : -3.0	i	-4.6	0.0	0.688	+	0.2
NC(=O)c1c(NC(=O)COC(=O)c2ccc(O)c(Cl)c2)sc2c1CCCC2
 : 4.6	i	-0.9	9.2	0.649	0.0	2.1
CC(=O)c1cc(-c2nc3ccccc3n2C)n(C)c1
 : 1.7	nt	-3.9	-2.8	0.719	-1.2	3.7
Cc1cccc(NC(=O)C(=O)NCC2CCCO2)c1 (stereo unspecified)
 : nt	i	-0.4	8.3	0.721	-3.7	-1.5
NC(=O)c1ccc(NC(=O)c2cc(S(=O)(=O)N3CCCCC3)ccc2N2CCOCC2)cc1
 : -3.0	i	2.9	6.7	0.646	-7.0	0.9
CCOc1cc2[nH]c(=S)n(CCN3CCCCC3C)c(=O)c2cc1OCC (stereo unspecified)
 : 16.3	nt	-2.7	8.9	0.742	-4.3	-0.5
Cc1cc(-c2ccc(C(=O)O)s2)cnc1N
 : -2.3	i	6.1	2.6	0.702	3.6	i
Cc1nc2ccc(NC(=O)c3cccc(S(=O)(=O)N4CC(C)OC(C)C4)c3)cc2s1 (stereo unspecified)
 : -9.0	nt	-3.0	7.3	0.746	-0.6	1.2
NC(=O)Cc1nc(-c2ccccc2)cs1
 : 6.8	nt	4.5	1.1	0.684	3.7	-2.6
CCC(=O)N1CCN(c2ccnc3cc(Cl)ccc23)CC1
 : -22.3	i	-2.2	0.1	0.696	-2.5	6.7
COc1ccc(S(=O)(=O)NC(C)C(=O)NC2CC2)cc1C (stereo unspecified)
 : -12.3	i	4.7	-3.2	0.668	5.3	2.8
O=C(Nc1nnc(S(=O)(=O)N2CCOCC2)s1)c1ccccc1Br
 : 0.4	i	-2.3	-4.9	0.713	-1.1	1.7

An excerpt from further up, as a working copy:
Below each compound – ALR H2O2 inh	FGF22 binding	B2AR ag	HNF4A DNA FP	E coli growth	LANA-H2B inh	UCH37 DUB inh
COc1ccc(S(=O)(=O)NC(C)C(=O)NC2CC2)cc1C (stereo unspecified)
 : -12.3	i	4.7	-3.2	0.668	5.3	2.8
O=C(Nc1nnc(S(=O)(=O)N2CCOCC2)s1)c1ccccc1Br
 : 0.4	i	-2.3	-4.9	0.713	-1.1	1.7

Screening data from PubChem BioAssay.
